VACV mCherry inh = vaccinia inhibition (mCherry reporter). Vaccinia virus mCherry reporter infection, fluorescence; about a quarter of the inactives have no number. 310,000 tested, 0.63% active. Potency, µM (top dose mostly 36.5 µM), without a hit: top-dose activity change, negative = inhibition, most hits filed as inhibitors; active = well fitted inhibition curve with a large enough effect; inconclusive = small, poorly fitted or top-dose-only effect; inactive = no such curve, though single readings can be large or run the other way; tested in A549 cells; also: nearly all actives have a fitted effect of over 35% in size; inactives centre near -10
Vaccinia Venus = inhibitors of vaccinia virus (Venus reporter) | Vaccinia virus Venus reporter expression, fluorescence | Potency, µM (top dose mostly 36.5 µM), inactives show at the highest dose activity change, negative = inhibition, hits mostly inhibitors | 330,000 tested, 0.46% active | AID 720580; active means well fitted inhibition curve with a large enough effect; inconclusive means small, poorly fitted or top-dose-only effect; inactive means no such curve, though single readings can be large or run the other way; tested in A549 cells; also: nearly all actives have a fitted effect of over 30% in size; inactives centre near -10
Numbers without * were called inactive; i = inactive; ? = inconclusive; . = no result given; & = joins results of further samples; [ ] = remark or other dose. % is scaled to controls: 0 for no effect and ±100 for the full control effect; potency is read from the fitted curve at half-maximal effect. No enrichment for hits (roughly 0.82% active in at least one column).

SMILES	VACV mCherry inh	Vaccinia Venus
COC(=O)CCC(=O)NC(=S)Nc1cc(Cl)ccc1Cl	-15%	-8%
CN(C)C(=O)CCc1ccc2c3c([nH]c2c1)[C@]1(C)[C@@H](C(=O)N2CCOCC2)C[C@H](CC(=O)NC(C)(C)C)C(=O)N1CC3	-2%	0%
CC(C)CN(CC(C)C)S(=O)(=O)N1CCC(C(=O)NCc2cccs2)CC1	-17%	-16%
O=C(Cc1ccccc1)Nc1ccc(NC(=O)c2cccs2)cc1	-16%	-7%
S=C(Nc1nc2c(s1)CCCC2)NC1CC1	-29%	-8%
O=C(Nc1ccc(-c2noc(CCc3ccccc3)n2)cc1)c1ccco1	?	-20%
COC(=O)c1ccc(Cl)c(NC(=O)NC2CCCCC2)c1	.	-20%
CC(C)CC(=O)NC(=S)N(Cc1ccccc1)Cc1ccccc1	-6%	-17%
Cc1ccc(N2CCN(C(=O)c3c4c(nc5ccccc35)C(=O)N(C3CCCCC3)C4)CC2)c(C)c1	-22%	-16%
CCOc1cc(Br)c(CN2C(=O)NC3(CCCCCC3)C2=O)cc1OCC	-11%	-13%
COC(=O)c1ccc(/C=C2\SC(=S)N(CCCC(=O)N3CCOCC3)C2=O)cc1	-14%	8%
c1ccc(Nc2nc3ccccc3n3nnnc23)cc1	i	3%
CC(=O)N1CCc2cc(NC(=O)C3(C)CCN3Cc3ccc(C(C)C)cc3)ccc21 (configuration not stated)	-20%	-16%
C=C1C[C@@]23CCC4[C@@](C)(CCC[C@@]4(C)C(=O)O)C2CC[C@]1(O)C3 (some centres not stated)	i	-7%
Cn1nc(-c2ccc(OCC(=O)N3CCN(Cc4ccccc4)CC3)cc2)c2ccccc2c1=O	-14%	?
Clc1ccc(-c2nc3c4ccccc4ccn3c2Cc2ccsc2)cc1	-7%	7%
CCCN(CCC)C(=O)C1CC(=O)OC12CCCCC2 (configuration not stated)	-3%	-13%
c1cncc(-c2nc(NCCN3CCOCC3)c3ccccc3n2)c1	16%	19%
OC(CN1CCCC(C(F)(F)F)C1)c1ccccc1 (configuration not stated)	-10%	-10%
COc1cc(C(=O)NCC(c2cccs2)N2CCOCC2)ccc1OCc1ccc(Cl)cc1 (configuration not stated)	?	?
Cc1onc(-c2ccccc2Cl)c1C(=O)Nc1ccc(-n2nncc2C(C)(C)C)cc1	-4%	-12%
CCOC(=O)c1c(NC(=O)COC(=O)/C=C/c2ccco2)sc2c1CC(C)(C)NC2(C)C	-2%	-24%
CCc1cccc(C)c1NC(=S)N(CCCN1CCOCC1)Cc1cccnc1	-5%	0%
OCC[C@H]1C[C@@H](O)[C@H](O)[C@@]2(OCCc3ccccc32)O1	i	-10%

Single records (already shown):
Cc1onc(-c2ccccc2Cl)c1C(=O)Nc1ccc(-n2nncc2C(C)(C)C)cc1 across the screens: VACV mCherry inh = -4%; Vaccinia Venus = -12%
CCc1cccc(C)c1NC(=S)N(CCCN1CCOCC1)Cc1cccnc1 across the screens: VACV mCherry inh = -5%; Vaccinia Venus = 0%

In the list so far, these have a thiophene ring, fused or not:
SMILES	VACV mCherry inh	Vaccinia Venus
CC(C)CN(CC(C)C)S(=O)(=O)N1CCC(C(=O)NCc2cccs2)CC1	-17%	-16%
O=C(Cc1ccccc1)Nc1ccc(NC(=O)c2cccs2)cc1	-16%	-7%
Clc1ccc(-c2nc3c4ccccc4ccn3c2Cc2ccsc2)cc1	-7%	7%
COc1cc(C(=O)NCC(c2cccs2)N2CCOCC2)ccc1OCc1ccc(Cl)cc1 (configuration not stated)	?	?
CCOC(=O)c1c(NC(=O)COC(=O)/C=C/c2ccco2)sc2c1CC(C)(C)NC2(C)C	-2%	-24%

Next part:
SMILES	VACV mCherry inh	Vaccinia Venus
O=C(NCCOc1ccccc1)c1cccc(S(=O)(=O)N2CCN(Cc3ccccc3)CC2)c1	-17%	-25%
CSc1nnc(-c2cccn(Cc3cccc(Cl)c3)c2=O)o1	i	-7%
C=CCOc1ccc(/C=N/Nc2ccccn2)cc1OC	-23%	-23%
Cc1ccccc1CC(=O)c1ccc(O)c(C)c1O	-5%	-9%
CC(C)n1c(NCc2ccc(N(C)C)cc2)nc2ccccc21	.	-23%
O=C(NCCCn1ccnc1)/C(=C\c1cccnc1)NC(=O)c1ccccc1F	i	-1%
COc1ccc(CC(=O)N/N=C(\C)c2cccnc2)cc1	-1%	2%
CCN1CCN(CCC(=O)Nc2cc(OC)ccc2OC)CC1	-12%	-8%
Cc1nc(SC(C(=O)c2ccccc2)c2ccccc2)nc2ccccc12 (configuration not stated)	-12%	-5%
COc1ccc(CCN2C(=O)CC(N3CCN(S(=O)(=O)c4ccccc4)CC3)C2=O)cc1 (configuration not stated)	.	-24%
CCOC(=O)C1=C(C)N=C2SC(C(=O)OC)=CC(=O)N2C1c1cc(OC)c(OC)c(OC)c1 (configuration not stated)	-14%	-3%
COc1ccccc1CNC(=O)C1CC2Cn3c(nc4cc5ccccc5cc43)C2N1C (configuration not stated)	i	-23%
O=C(Cn1nc(-c2ccccc2)c2cnc3ccccc3c21)Nc1ccccc1	7%	2%
Cc1ccc(-c2cc(C(F)F)n3ncc(C(=O)NCc4ccco4)c3n2)cc1	-19%	-6%
O=C(c1n[nH]c(=O)c2ccccc12)N1CCC2(CC1)OCCO2	i	-9%
Nc1ccc(Sc2ccccc2Cl)nc1	-9%	-6%
CC(C)CNC(=O)C1CC(=O)OC12CCCCC2 (configuration not stated)	.	-5%
N#CC(C#N)=C1SC(=Nc2ccccc2)C(=Nc2ccccc2)N1c1ccccc1	i	-7%
CCCCOP(=O)(OCCCC)C(O)c1ccc(F)cc1 (configuration not stated)	-12%	2%
COc1ccc(NC(=O)N(C)C[C@@H]2Oc3ncc(Br)cc3C(=O)N([C@@H](C)CO)C[C@@H]2C)cc1	i	-4%
CCCNC(=O)C(Cc1ccc(F)cc1)NC(=O)c1ccc(C#N)cc1 (configuration not stated)	-13%	-6%
Cc1noc(NC(=O)c2ccccc2C(F)(F)F)c1C#N	i	-8%
Cc1ccc(NC(/C=C/N(C)C)=C/C(=O)C(F)(F)F)c(C)c1	-23%	-10%
COc1ccc(C(CNC(=O)c2oc3cc(C)c(Cl)cc3c2C)N2CCCCC2)cc1 (configuration not stated)	-5%	-13%
Cc1cc(C)c2nc(-c3ccco3)cc(C(=O)O)c2c1	-13%	-1%
CC1CCN(C(=O)CSc2nnc3c(n2)[nH]c2ccccc23)CC1	-17%	-6%
Cc1ccccc1S(=O)(=O)NCC[C@@H]1CC[C@@H](NC(=O)C2CCCC2)[C@@H](CO)O1	-13%	-15%
O=C1N=C(N2CCOCC2)S/C1=C/c1ccc(-c2ccc(F)cc2)o1	i	-20%
COCC(=O)N[C@H]1CC[C@@H](CC(=O)OC)O[C@@H]1CO	-7%	-2%
CCOc1ccc(C(c2c(C)[nH][nH]c2=O)c2c(C)[nH][nH]c2=O)cc1OCC	i	-5%
Cc1cccc(NC(=O)c2ccc(N3CCOCC3)c([N+](=O)[O-])c2)n1	-7%	7%
COc1ccc(-c2noc(CSCC(=O)Nc3ccc(C)cc3Br)n2)cc1OC	i	-13%
CCCn1c(=O)c2sccc2n2c(CCCC(=O)Nc3ccccc3F)nnc12	-4%	-6%
COc1ccc(C2=CC(=O)C[C@H](c3ccc(Cl)cc3)C2)cc1	i	-11%
FC(F)(F)c1nc2cc3nc4ccccc4[nH]c3cc2n1	-6%	49%[activator]
O=C(CN1CCCCCC1)N1c2ccccc2Sc2ccccc21	-12%	-6%
COc1cc2c(cc1OC)C(c1ccncc1)CC(=O)N2 (configuration not stated)	-6%	-4%
CC(C)CC(COCc1cccc(Cl)c1)N1CCN(C(=O)c2cccc(C(F)(F)F)c2)CCC1=O (configuration not stated)	-5%	?
Cc1ccc2nc(-c3ccc(CN4CCC(n5c(=O)[nH]c6ccccc65)CC4)cc3)c(-c3ccccc3)nc2c1	?	?
COc1ccccc1N1CCN(c2ccc([N+](=O)[O-])cn2)CC1	i	-3%
COc1ccc(NC(=O)c2cc3c(COC(C)=O)cnc(C)c3oc2=Nc2cccc(C(=O)O)c2)c(OC)c1	-4%	-9%
COc1cccc(OC)c1OCCCN1CCC(Cc2ccccc2)CC1	-14%	-4%
CC(C)c1nnc(SCC(=O)Nc2ccc3c(c2)OCCO3)n1C	-5%	-3%
Cc1cc(C)c(CN2CCN(C(=O)CC[C@H]3O[C@@H](n4cnc5c(NC(=O)c6ccccc6)ncnc54)[C@H](O)[C@@H]3O)CC2)c(C)c1	17%	-5%
CCCCN(C)C(=O)c1coc(=O)c2ccccc12	i	-14%
COc1ccc2c(c1)c1c(c(=O)n(-c3ccc(F)c(Cl)c3)c(=O)n1CC(N)=O)n2C	3%	0%
CC(C)NC(=O)C1(C)CN(S(C)(=O)=O)CC(=O)N1C1CCCCCC1 (configuration not stated)	-11%	-1%
Cc1ccccc1C(=O)NCC(c1ccc(N(C)C)cc1)N1CCCC1 (configuration not stated)	2%	-12%
COc1ccc(-c2nsc(SCC(=O)Nc3ccc4c(c3)OCO4)n2)cc1	-1%	-5%
C=CCn1c(SCCCCCC)nc(O)cc1=O	-14%	-7%
CCOc1cc(N2CCOCC2)c(OCC)cc1NC(=O)Cn1nc(C)c([N+](=O)[O-])c1C	-16%	-2%
CCC(C)c1ccc(S(=O)(=O)N2CCN(c3ccccn3)CC2)cc1 (configuration not stated)	-18%	-13%
CCCCOc1ccc(C(=O)NCC(c2ccc(Cl)cc2)N2CCOCC2)cc1 (configuration not stated)	-16%	-13%
CCN1CCN(c2ccc([N+](=O)[O-])cc2C=C2C(=O)NC(=O)NC2=O)CC1	-18%	-3%
CCn1c(SCC(=O)Nc2cc(C)on2)nnc1-c1c[nH]c2ccccc12	-1%	?
Cc1cc(=O)[nH]c(SCC(=O)NC2CCCCCC2)n1	i	-5%
Cc1ccccc1NC(=O)Nc1cccs1	-4%	-1%&2%
CS(=O)(=O)c1ccc(C(=O)OCC(=O)NC(=O)NC2CCCCC2)cc1[N+](=O)[O-]	-25%	-22%
CN(C)CCNC(=O)c1cccc(-c2cc(NC=O)c3ncc(-c4cccc(C(F)(F)F)c4)n3c2)c1	?	?
COC(=O)[C@@]12C[C@@H](CC(=O)N3CCN(C(=O)C4CC4)CC3)C(=O)N(Cc3cccc4ccccc34)C1=CCC(C)(C)C2	-17%	?
Additional structures follow.
SMILES	VACV mCherry inh	Vaccinia Venus
Cc1cc(C)cc(C(=O)n2nc(C)c(S(=O)(=O)N3CCCCCC3)c2C)c1	-4%	-13%
CC1=C(C)[N+](=O)C2(O)CCCCC2(C)N1[O-] (configuration not stated)	.	-13%
CCCCCN(C(=O)CCC(=O)OCC(=O)c1cccc(OC)c1)c1c(N)n(CCCC)c(=O)[nH]c1=O	i	-14%
CC1(C)CC(=O)C=C(NCC(=O)O)C1	i	-10%
CCN(CC(=O)Nc1c(F)cccc1F)C(=O)CCSc1ccc(F)cc1	?	-4%
O=C(NNC(=O)C1CCCCC1)c1ccncc1	-3%	1%
Cc1[nH]n(C(N)=S)c(=O)c1N=Nc1ccc2ccccc2c1	-21%	-3%
COC(=O)Cn1cc(/C=C/[N+](=O)[O-])c2ccccc21	-1%	-9%
Cc1ccccc1OCCC(=O)Nc1cccc(S(=O)(=O)Nc2ccccc2Cl)c1	-1%	-14%
CC(C)C[C@H](NC(=O)[C@H](Cc1ccccc1)n1c(=O)[nH]c2ccccc2c1=O)C(=O)N1CCC[C@H]1C(=O)O	4%	-3%
C(=C\c1ccccc1)/CN1CCN(CCOC(c2ccccc2)c2ccccc2)CC1	-21%	-29%
COc1ccc2[nH]c(C)c(CCN3CCC(=O)C(C)C3C)c2c1 (configuration not stated)	?	8%
NC(=O)CCc1c[nH]c2ccccc12	-13%	-9%
COc1ccccc1C1CCN(Cc2ccc(Cl)cc2Cl)CC1	-2%	-16%
Cc1ccc(-c2cc(=O)[nH]c3ccccc23)cc1	?	-23%
Cc1ccccc1Cn1nnc(-c2ccc(F)cc2)n1	-16%	-13%
Cc1ncc(/C=C2\C(=O)Nc3ccccc32)[nH]1	?	-16%
NS(=O)(=O)c1ccc(NC(=O)COC(=O)c2ccc([N+](=O)[O-])s2)cc1	-30%	-10%
CCOc1ccccc1NC(=O)NC1(C(=O)NCc2cccnc2)CCCCC1	-17%	1%
CCn1c(C(=O)NCc2cccc(Br)c2)cc2oc3ccccc3c21	0%	-1%
CC#CCN1C=C(C(=O)OCC)C(C)N(Cc2ccc(Br)cc2)S1(=O)=O (configuration not stated)	i	-8%
CC1(C)C(O)CC(=O)[C@]2(C)C1CC(=O)[C@]1(C)C2CC[C@@]2(C)C(c3ccoc3)OC(=O)C3O[C@@]321 (some centres not stated)	-12%	-10%
COc1ccc(NC(=O)NCCn2nnc3cc(S(=O)(=O)N(C)C)ccc32)cc1	-4%	0%
COc1ccc(S(=O)(=O)N2CCN(C(=O)c3oc4ccccc4c3C)CC2)cc1	-15%	-8%
CNC(=O)COc1ccc(S(=O)(=O)N2CCCC2)cc1	-14%	-4%
CCOc1ccccc1CNC(=O)C1CCN(C(=O)N2CC(CC)Oc3ccc(C)cc32)CC1 (configuration not stated)	-8%	-9%

Entries listed so far containing a cyano group, in the order listed:
SMILES	VACV mCherry inh	Vaccinia Venus
N#CC(C#N)=C1SC(=Nc2ccccc2)C(=Nc2ccccc2)N1c1ccccc1	i	-7%
CCCNC(=O)C(Cc1ccc(F)cc1)NC(=O)c1ccc(C#N)cc1 (configuration not stated)	-13%	-6%
Cc1noc(NC(=O)c2ccccc2C(F)(F)F)c1C#N	i	-8%

Screening data as filed in PubChem BioAssay.
